# Cruzain Triton – blocks cruzain activity in presence of Triton detergent. purified cruzain, Z-FR-AMC fluorescence, 0.01% Triton. Potency, µM, inactives show max response, negative = inhibition, most hits filed as inhibitors. 200,000 compounds, 0.43% hits. AID 1478;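 also: plate controls were neutral wells for no effect and buffer without enzyme for full effect; nearly all actives have a fitted effect of over 40% in size; top concentration of the series not given in the record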
# Target sequence (P25779 123-467 limits assumed): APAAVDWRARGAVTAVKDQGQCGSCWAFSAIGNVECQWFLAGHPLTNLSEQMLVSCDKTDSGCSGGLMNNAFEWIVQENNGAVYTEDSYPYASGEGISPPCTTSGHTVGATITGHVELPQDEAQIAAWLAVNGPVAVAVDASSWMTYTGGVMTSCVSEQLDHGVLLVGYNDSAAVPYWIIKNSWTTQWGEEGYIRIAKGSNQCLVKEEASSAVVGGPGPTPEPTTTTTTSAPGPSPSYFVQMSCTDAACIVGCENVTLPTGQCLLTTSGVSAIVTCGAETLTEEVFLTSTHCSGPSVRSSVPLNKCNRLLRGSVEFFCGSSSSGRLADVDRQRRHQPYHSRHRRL
#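 Compounds were screened in titration against cruzain (1.5 nM) with 0.01% Triton X-100 to counter colloidal aggregation. Activity was the AMC fluorescence increase over 60 s after adding 2 uM Z-FR-AMC at pH 5.5.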
# Lassa entry inh – blocks Lassa virus binding to or entry into cells. Potency, µM (titrated, usually from 37.9 µM), inactives show at the highest dose activity change, negative = inhibition, usual class: inhibitors. 300,000 compounds, 1.2% hits. Lassa virus pseudotype entry inhibition, cell reporter; control for the full effect not named in the record; active means well fitted inhibition curve with a large enough effect; inconclusive means small, poorly fitted or top-dose-only effect, or effect the other way; inactive means flat fitted curve, though single readings scatter; tested in HEK293 cells; also: % is scaled to controls: 0 for no effect and ±100 for the full control effect; nearly all actives have a fitted effect of over 50% in size; luciferase read-out
# Cruzain inh noDet – blocks cruzain activity in detergent-free assay; purified cruzain, Z-FR-AMC fluorescence, no detergent; Potency, µM, without a hit: max response, negative = inhibition, most hits filed as inhibitors; 200,000 compounds, 2.3% hits; AID 1476;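 also: plate controls were enzyme without inhibitor for no effect and buffer without enzyme for full effect; nearly all actives have a fitted effect of over 40% in size; top concentration of the series not given in the record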
#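 Detergent-free condition (0.00005% Triton X-100) in acetate buffer pH 5.5 with DTT. 1.5 nM enzyme and compound were pre-mixed 15 min, then 2 uM Z-FR-AMC substrate added; reaction progress from fluorescence change between first and third reads (60 s).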
# SARS PLpro yeast – inhibitors of SARS-CoV papain-like protease in yeast. Potency, µM (highest dose often 32.9 µM), without a hit: at the top dose activity, positive = growth rescue. 330,000 compounds, 0.19% hits. AID 485353. S. cerevisiae expressing SARS-CoV PLpro, growth rescue; control for the full effect not named in the record; active means well fitted rising curve with a large enough effect; inconclusive means small, poorly fitted or top-dose-only effect; inactive means no such curve, though single readings can be large or run the other way; also: 0% is about no effect; nearly all actives have a fitted effect of over 55% in size; growth read by luminescence after 48 h
# NS1 function inh – influenza NS1 inhibition | S. cerevisiae slowed by influenza A NS1, growth recovery by OD600 | Potency, µM (titrated, usually from 46.1 µM), for the others: top-dose activity, positive = more growth | 270,000 compounds, 0.4% hits; active means well fitted rising curve with a large enough effect; inconclusive means small, poorly fitted or top-dose-only effect; inactive means no such curve, though single readings can be large or run the other way; also: nearly all actives have a fitted effect of over 50% in size
#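 S. cerevisiae expressing influenza A NS1, grown in glucose, washed, then diluted 1:100 into pH 6.0 -URA galactose medium with 23 nl compound. Growth recovery read as OD600; NS1-free strain serves as control.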
# StopGo reporter – FMDV 2A StopGo reporter, luciferase signal | 410,000 compounds, 1.2% hits | Potency, µM (highest dose often 57.9 µM), without a hit: at the highest dose signal change, negative = less light | human cells with a luciferase reporter of 2A StopGo recoding; control for the full effect not named in the record; active = well fitted falling curve with a large enough effect; inconclusive = small, poorly fitted or top-dose-only effect; inactive = no such curve, though single readings can be large or run the other way; tested in HEK293T cells; also: % is scaled to controls: 0 for no effect and ±100 for the full control effect; nearly all actives have a fitted effect of over 45% in size; luciferase light after 4 h
# RE007 growth inh – less growth of the S. pombe RE007 Vpr strain. 360,000 compounds, 0.21% hits. Potency, µM (series often up to 92.2 µM), for inactives: top-dose activity change, negative = less growth. S. pombe RE007 Vpr strain, BacTiter-Glo ATP luminescence, 24 h; control for the full effect not named in the record; active = well fitted falling curve with a large enough effect; inconclusive = small, poorly fitted or top-dose-only effect; inactive = no such curve, though single readings can be large or run the other way;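 also: % is scaled to controls: 0 for no effect and ±100 for the full control effect; nearly all actives have a fitted effect of over 50% in size; the assay follows cell death caused by Vpr and the record does not say whether a fall means rescue or toxicity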
#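 Fission yeast RE007 carrying one integrated HIV-1 vpr copy, seeded at OD 0.01 in PMG+AL medium with 23 nL pinned compound. Grown 24 h at 30 degrees; viability read by BacTiter-Glo luminescence after 5 min.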
# Marburg entry inh – inhibitors of Marburg virus binding or cell entry; AID 540276; Potency, µM (top dose mostly 37.8 µM), inactives show top-dose activity change, negative = inhibition, hits mostly inhibitors; 300,000 compounds, 1.8% hits; Marburg virus pseudotyped entry inhibition, cell reporter; control for the full effect not named in the record; about a third of the inactives were read at about 46 µM; active = well fitted inhibition curve with a large enough effect; inconclusive = small, poorly fitted or top-dose-only effect, or effect the other way; inactive = flat fitted curve, though single readings scatter; tested in HEK293 cells; about a fifth of its hits are not listed in these tables; also: % is scaled to controls: 0 for no effect and ±100 for the full control effect; luciferase read-out
# * = called active by the depositor; ? = inconclusive; nt = no result given; & = joins results of further samples; [ ] = another dose, or the depositor's remark. Unless noted, calls follow the shape of the dose curve; as a rule, active = well fitted curve in the direction sought with a large enough effect; inconclusive = small, poorly fitted or top-dose-only effect, or another doubt; inactive = no such curve, though single readings can be large; an effect the other way counts as inactive or inconclusive. Potency is read from the fitted curve at half-maximal effect. Rows were taken by chance; 4.7% or so of the library scored in one or more.
SMILES,Cruzain Triton,Lassa entry inh,Cruzain inh noDet,SARS PLpro yeast,NS1 function inh,StopGo reporter,RE007 growth inh,Marburg entry inh
COc1ccc(Cl)cc1NC(=O)CCn1cnc2ccccc2c1=O,-7.0%,-6.6%,-8.8%,-1.3%,-5.7%,?,-4.9%,-1.1%
CCn1c(=NC(=O)CN2C(=O)CCC2=O)sc2c(C)cc(C)cc21,-2.8%,nt,7.8%,-0.7%,1.4%,-22.7%,4.6%,nt
COC(=O)c1c(NC(=O)c2c(OC)cccc2OC)sc2c1CCCC2,-2.9%,25.2%[46.1 µM],5.6%,nt,nt,-14.7%,nt,nt
Cn1c(=O)c2[nH]c(-c3cccnc3)nc2n(C)c1=O,0.3%,-22.1%,-4.0%,3.9%,-8.7%,-16.6%,-2.5%,?
Cc1cc(C)c(C#N)c(N2CCN(Cc3ccc4c(c3)OCO4)CC2)n1,1.4%,-14.1%,4.3%,-0.8%,-2.1%,?,-2.0%,?
COc1ccc(C)cc1N(C)C(=O)Cc1c(C(=O)O)n(C)c2ccccc12,nt,3.4%,nt,-0.3%,-3.9%,-3.4%,-0.3%,17.0%
Cc1ccc(OCC(=O)N/N=C2\CCOc3c(C)cccc32)cc1,1.0%,2.5%,3.9%,-0.2%,-3.5%,17.7%,-17.9%,-1.4%
CCC(=O)N1CCc2cc(S(=O)(=O)CCC(=O)NCc3ccc(C)cc3)ccc21,0.2%,16.0%[46.1 µM],-7.3%,-2.0%,-4.4%,-22.5%&2.9%,0.6%,12.4%&12.4%[46.1 µM]
COc1ccc(C)cc1NC(=O)CN1C(=O)COc2ccc(S(=O)(=O)N3CCOCC3)cc21,-0.9%,2.8%[46.1 µM],-16.5%,3.2%,5.1%,13.0%&-3.0%,-4.3%,nt
Cc1cccc(NC(=O)CSc2nnc(C)c(=O)n2N)c1C,2.7%,-6.6%,2.8%,0.6%,-1.1%,-26.8%,9.2%,?
CCc1nc(N)c(C#N)c(-c2ccncc2)c1C,6.5%,3.3%,-1.7%,1.3%,-5.9%,0.5%,5.4%,0.1%&0.1%
Cc1ccc2nc(-c3ccccc3F)c(Nc3ccc(Cl)cc3)n2c1,-14.8%,15.8%[46.1 µM],12.6%,nt,nt,13.3%,nt,-12.0%[46.1 µM]
CC(C)(C)c1ccc(C(=O)OCC(=O)NC2CC2)cc1,nt,-1.3%,nt,-1.0%,nt,4.5%,23.5%,0.7%[46.1 µM]
CC1CN(C(=O)COC(=O)c2ccc(C#N)cc2)CC(C)O1 (stereo unspecified),nt,-0.3%[46.1 µM],nt,8.8%,6.8%,-6.6%,12.6%,15.6%[46.1 µM]
CCN(C(=O)COC(=O)CNS(=O)(=O)c1ccccc1)c1ccccc1,nt,0.5%,nt,7.5%,nt,-3.7%,8.0%,-10.6%[46.1 µM]
COc1ccccc1N1CCN(C(=O)c2c(-c3c(F)cccc3Cl)noc2C)CC1,nt,?,nt,4.3%,-16.4%,-11.9%,-5.9%,?
CCCC(=O)NCCc1cc2cc(C)c(C)cc2[nH]c1=O,-1.8%,-13.0%,-9.7%,-0.7%,-3.0%,17.1%,-5.1%,-5.1%
Cc1[nH]c2ccccc2c1C(=O)C(=O)N(C)C1CCCCC1,nt,nt,nt,-1.4%,13.6%,-13.4%,8.6%,nt
O=C(N/N=C/c1ccccn1)c1c[nH]c2ccccc12,nt,?,nt,0.6%,1.9%,40.2%[activator],-9.6%,?
O=C(NC1CCCC1)C1CCN(S(=O)(=O)c2ccccc2)CC1,nt,1.0%[46.1 µM],nt,-0.4%,1.5%,-0.7%,-2.3%,-7.7%[46.1 µM]
CCSc1nc(N2CCOCC2)c2c(c1C#N)CC(C)(C)N(C)C2,-0.2%,-9.1%,-1.8%,-1.3%,9.3%,-23.8%,1.8%,-25.3%[46.1 µM]
O=C(COc1ccccc1Cl)N1CCN(C(=O)c2ccco2)CC1,nt,-7.7%,nt,12.9%,18.1%,-6.7%,7.5%,11.4%
COc1ccc(OC)c(NC(=O)N2CCCC(CNS(=O)(=O)c3cccs3)C2)c1 (stereo unspecified),nt,-13.9%,nt,0.1%,-1.8%,9.8%,1.1%,8.2%[46.1 µM]
COCC(=O)N1CCN(c2ccc([N+](=O)[O-])cc2)CC1,-6.4%,-17.1%,-18.4%,3.2%,10.6%,-26.3%,22.6%,?
Cc1ccc(C(C)C)c(OCCN2C(=O)NC(C)(C)C2=O)c1,3.8%,8.0%,8.2%,1.5%,2.0%,-13.4%,-8.2%,-8.6%
Cc1ccccc1OCCc1c(C)[nH]c(=S)[nH]c1=O,nt,?,nt,-1.4%,nt,?,15.5%,?
O=C(Cc1cccs1)Nc1ccccc1NC(=O)Cc1cccs1,4.5%,8.1%,0.5%,1.7%,-0.9%,10.6%,-2.6%,0.9%
CCCOC(=O)C1=C(C)NC2=C(C(=O)CC(C)(C)C2)C1c1ccc(N(C)C)cc1 (stereo unspecified),-1.9%,-0.9%,0.3%,-2.9%,-63.4%,14.2%,16.2%,-18.4%[46.1 µM]
Cc1cccc(N2CCN(C(=O)C3CCN(S(=O)(=O)c4cccc5nsnc45)CC3)CC2C)c1 (stereo unspecified),-4.8%,?,6.7%,22.0%,0.2%,25.1µM*,-6.7%,?
Cc1cc2oc3c(c(=O)c2cc1C)C(c1ccc(F)cc1)N(CCCN1CCOCC1)C3=O (stereo unspecified),-4.2%,nt,-1.5%,?,-81.2%,-0.3%,3.6%,nt
CCCOc1cccc(C2c3c(oc4ccc(F)cc4c3=O)C(=O)N2CCc2ccc(OC)cc2)c1 (stereo unspecified),-2.6%,-10.9%[46.1 µM],0.0%,nt,nt,-3.7%,nt,-7.8%[46.1 µM]
Cc1ccn2c(Nc3ccc(F)cc3)c(-c3ccc(C)o3)nc2c1,-11.8%,19.4%[46.1 µM],-14.1%,nt,nt,9.5%,nt,-1.0%[46.1 µM]
CCOc1ccc(NC(=O)CC2C(=O)N(c3ccccc3)C(=O)N2CCc2cccs2)cc1 (stereo unspecified),-2.1%&-2.8%,?,4.1%&5.7%,-3.5%,-14.1%,-2.6%&10.6%,10.1%,?
CCOc1ccc(NC(=O)CSc2nnc(-c3ccc(OCC)cc3)o2)cc1,-3.3%,3.2%[46.1 µM],-6.2%,nt,nt,-14.1%,nt,-9.8%[46.1 µM]
C/C=C/CC#N,7.6%,nt,-0.6%,-13.7%,nt,-24.5%,5.5%,nt
Cc1c(-c2nsc(NC(=O)c3ccccc3)n2)nnn1-c1ccc(C(F)(F)F)c(Cl)c1,-0.6%,0.3%[46.1 µM],20µM*,nt,nt,-3.9%,nt,nt
Cn1c(SCC(=O)N2CCOCC2)nnc1-c1ccncc1,nt,3.9%[46.1 µM],nt,1.4%,-1.7%,3.1%,11.0%,-12.4%[46.1 µM]
O=C(NCc1ccc2c(c1)OCO2)Nc1cccc2ccccc12,nt,nt,nt,-0.1%,-2.3%,9.1%,-3.9%,nt
CCc1nnc(NC(=O)CSc2nnc(CSc3nc(C)cc(C)n3)o2)s1,5.8%,7.0%,-2.3%,-0.5%,2.8%,8.7%,-16.8%,5.8%
COc1ccc(C(=O)N2CCC(n3nccc3NC(=O)C3CC3)CC2)c(OC)c1OC,nt,nt,nt,3.0%,?,-5.1%,9.8%,nt
O=C(Nc1ccc(N2CCOCC2)cc1)C1(c2ccc(Cl)cc2)CCC1,nt,-27.9%,nt,-4.3%,nt,-18.4%,-15.0%,?
O=C(CN1CCN(c2ccccn2)CC1)NCCc1ccccc1,1.7%,-3.7%,5.6%,-0.1%,-5.9%,-6.3%,1.1%,1.3%
COc1ccc(C(=O)C2CCCN(C(=O)c3ccc(C(C)=O)s3)C2)c(C)c1 (stereo unspecified),nt,nt,nt,-12.9%,-9.1%,-3.0%,12.3%,nt
CC(C)COC(=O)n1c(=O)oc2cc(S(=O)(=O)N3CCCCC3)ccc21,-2.2%,-26.3%,-2.6%,4.5%,-15.1%,-11.7%,18.0%,-0.6%
COc1ccc(/C=N/Nc2cc(C)nc(N3CCOCC3)n2)cc1,nt,0.6%,nt,2.5%,2.7%,3.5%,-21.2%,12.9%[46.1 µM]
Cc1nc2ccc(S(=O)(=O)Nc3cc(-c4nc5cccnc5s4)ccc3C)cc2s1,-6.0%,-18.2%,?,-25.3%,-25.4%,36.6%[activator],-12.0%,-29.2%
CC(C)CN(C(=O)COC(=O)c1ccccc1Sc1ccccc1C#N)C1CCS(=O)(=O)C1 (stereo unspecified),-5.1%,0.7%,?,13.0%,11.8%,7.2%,13.7%,25.4%
CCOc1ccc(C2c3[nH]c4ccccc4c3CCN2CCCn2cccn2)cc1 (stereo unspecified),nt,?,nt,0.3%,-2.8%,-12.7%,-13.3%,?
COc1ccc(CN2CCNC(=O)C2CC(=O)O)c(OC)c1 (stereo unspecified),3.2%,nt,-1.7%,1.7%,-35.0%,-13.8%,8.1%,nt
CCN(CC)C(=O)CSc1nc(-c2cccs2)cc(-c2cccs2)c1C#N,-8.9%,18.3µM*,-19.2%,6.6%,?,0.0%,-16.9%,?
# (listing goes on)
SMILES,Cruzain Triton,Lassa entry inh,Cruzain inh noDet,SARS PLpro yeast,NS1 function inh,StopGo reporter,RE007 growth inh,Marburg entry inh
O=C(Nc1ccc2nc(-c3cccs3)c(-c3cccs3)nc2c1)NC1CC1,-3.7%,-22.4%,26.8%,3.0%,-1.0%,-24.4%,-5.2%,-22.2%
Cc1ccc(S(=O)(=O)CC(=O)Nc2sc3c(c2C#N)CCCC3)cc1,4.0%,-3.2%[46.1 µM],7.8%,nt,nt,0.0%,nt,nt
CC(=O)CSc1nc(N(C)C)nc(N(C)C)n1,nt,-2.7%[46.1 µM],nt,-0.7%,-1.3%,-0.5%,-3.6%,6.1%[46.1 µM]
Cc1cc(C(=O)NN=C2CC(=O)CC(C)(C)C2)c(C)o1,nt,2.3%,nt,-5.4%,nt,0.7%,4.2%,?
